TRPML1 inh: inhibitors of human TRPML1 channel; Q9GZU1; TRPML1-inducible cells, Ca2+ dye fluorescence, FDSS; stronger effect = lower value; inhibition of EC80 agonist-evoked calcium signal; activity change, negative = inhibition, % (concentration not given with the values); 390,000 tested, 0.02% active; AID 624415; in the data active means activity change below about -50%; inconclusive means about -30% to -50%; inactive means above about -30%;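 further: stimulus is agonist 54-4 at its EC80 concentration; on the % scale 0 is the no-effect control and ±100 the full control effect; compound concentration not given in the record; the text of the record puts the active cut at -80%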
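Tet-induced TRPML1-DL cells loaded with Ca8 no-wash calcium dye were read kinetically on FDSS. Compound addition was followed by EC80 agonist 54-4 (4 uM final); inhibition was read over 110 s.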
TRPV1 potentiator: human TRPV1 potentiation. Q8NER1. TRPV1-expressing cells, Fluo-8 calcium influx, capsaicin EC20 potentiation; host cell line not named in the record; control for the full effect not named in the record. potentiation, % at 8.33 µM. 320,000 tested, 0.02% active; active means potentiation above 80%; inconclusive means 30% to 80%; inactive means below 30%; further: 0% is about no effect
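TRPV1-expressing cells were cultured overnight at 35.5C and loaded with Fluo-8 calcium dye for 40 to 90 min at room temperature. After a 10 s baseline, compound was added and calcium influx was read kinetically for 3 min (ex 480/em 520 nm).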
D2 potentiator: positive allosteric modulators of human D2 dopamine receptor. P14416. DiscoveRx D2 beta-arrestin cells, luminescence, 90 min; 100% = 57 uM dopamine signal. potentiation, % (no concentration beside the values). 360,000 tested, 0.23% active; active = potentiation of 50% or more; inconclusive = 30% to 50%; inactive = 30% or less;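 further: compound concentration not given in the record; tested on top of an EC20 dose of dopamine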
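D2 cells co-treated with compound plus 50 nM dopamine (EC20) for 90 min at 37 deg C to detect potentiation. Beta-arrestin recruitment was read as enzyme-fragment luminescence after 1 h at ambient temperature. Full response was set by 57 uM dopamine.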
CtBP-E1A blk: inhibitors of CtBP/E1A interaction; AlphaScreen GST-E1A/His-CtBP binding, 1536-well; stronger effect = lower value; control for the full effect not named in the record; activity change, % (no concentration beside the values); 340,000 tested, 0.49% active; in the data active means activity change below about -65%; inconclusive means about -30% to -65%; inactive means above about -30%; further: on the % scale 0 is the no-effect control and ±100 the full control effect; compound concentration not given in the record
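GST-E1A and His-tagged CtBP (125 nM each as 5X stock) were preincubated with pin-transferred compound for 2 h at 37 °C in the dark, then glutathione donor and nickel acceptor beads were added for 1 h before AlphaScreen reading.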
TRPML1 agonist: agonists of human TRPML1 channel; Q9GZU1; TRPML1-expressing cells, Ca2+ dye fluorescence, FDSS; host cell line not named in the record; reference of the full effect not given here; activation, % (no concentration beside the values); 410,000 tested, 0.12% active; in the data active = activation above about 50%; inconclusive = about 30% to 50%; inactive = below about 30%; further: 0% is about no effect; the text of the record puts the active cut at 80%
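Tetracycline-induced TRPML1-DL cells are seeded and incubated overnight before loading with a no-wash Ca2+ dye and quencher. Agonist activity is taken from the 110 s fluorescence read following compound pin-transfer on an FDSS, before EC80 54-4 challenge.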
Six1-Eya2 blk: Six1/Eya2 interaction inhibition; Q15475+O00167; AlphaScreen GST-Six1/His-Eya2 binding, biochemical; stronger effect = lower value; control for the full effect not named in the record; activity change, % (concentration not given with the values); 360,000 tested, 0.56% active; in the data active = activity change below about -65%; inconclusive = about -30% to -65%; inactive = above about -30%; further: on the % scale 0 is the no-effect control and ±100 the full control effect
Target sequence (O00167 whole entry, looked up): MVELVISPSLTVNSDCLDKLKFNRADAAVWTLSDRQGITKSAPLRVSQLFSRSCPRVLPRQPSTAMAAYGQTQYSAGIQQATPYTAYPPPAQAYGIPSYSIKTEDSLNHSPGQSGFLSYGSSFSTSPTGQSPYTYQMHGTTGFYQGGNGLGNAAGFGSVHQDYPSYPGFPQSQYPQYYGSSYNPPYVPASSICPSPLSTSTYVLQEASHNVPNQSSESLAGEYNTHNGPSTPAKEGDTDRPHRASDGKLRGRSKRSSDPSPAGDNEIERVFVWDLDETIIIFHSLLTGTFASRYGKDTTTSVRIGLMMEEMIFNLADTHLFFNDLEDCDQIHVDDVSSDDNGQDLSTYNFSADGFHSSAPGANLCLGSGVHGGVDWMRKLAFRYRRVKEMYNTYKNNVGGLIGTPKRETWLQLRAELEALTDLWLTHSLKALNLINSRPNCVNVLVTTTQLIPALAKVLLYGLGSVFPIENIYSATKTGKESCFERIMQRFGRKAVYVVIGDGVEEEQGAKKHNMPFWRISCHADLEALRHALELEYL
Target sequence (Q15475 whole entry, looked up): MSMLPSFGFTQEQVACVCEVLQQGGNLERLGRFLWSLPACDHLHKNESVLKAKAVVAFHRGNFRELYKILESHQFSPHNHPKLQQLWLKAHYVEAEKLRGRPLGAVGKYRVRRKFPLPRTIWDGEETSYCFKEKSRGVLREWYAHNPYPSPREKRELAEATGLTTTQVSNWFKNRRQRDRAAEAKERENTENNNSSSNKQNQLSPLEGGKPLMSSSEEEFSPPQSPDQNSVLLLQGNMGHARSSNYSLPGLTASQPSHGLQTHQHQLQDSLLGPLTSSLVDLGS
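GST-Six1 + His-Eya2 (5X stock: 250/500 nM); Tris pH 8.0, 300 mM NaCl, 0.05% BSA, 0.02% Tween 20; GSH donor/Ni acceptor beads; 1 h 37 °C dark; AlphaScreen readout.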
Numbers without * were called inactive; u = inconclusive; x = no result given. An unsorted share of the library. About 0.95% of those tested had a hit in this group.

The first 2 records, ahead of the listing:
SMILES	TRPML1 inh	TRPV1 potentiator	D2 potentiator	CtBP-E1A blk	TRPML1 agonist	Six1-Eya2 blk
CCC(=O)N1c2ccc(S(=O)(=O)NCc3ccccc3)cc2CC1C (centres undefined)	14	-3	-9	-1	1.0	-2
COc1ccc(NC(=O)CCC(=O)N(Cc2ccc(OC)c(OC)c2)c2nccs2)c(OC)c1	7	-8	1	0	3.6	-6

This part in full, from the first entry:
SMILES	TRPML1 inh	TRPV1 potentiator	D2 potentiator	CtBP-E1A blk	TRPML1 agonist	Six1-Eya2 blk
CCC(=O)N1c2ccc(S(=O)(=O)NCc3ccccc3)cc2CC1C (centres undefined)	14	-3	-9	-1	1.0	-2
COc1ccc(NC(=O)CCC(=O)N(Cc2ccc(OC)c(OC)c2)c2nccs2)c(OC)c1	7	-8	1	0	3.6	-6
N#CCC(=O)Nc1ccc(C(=O)OCC(=O)C23CC4CC(CC(C4)C2)C3)cc1	44	20	-2	-2	0.7	-8
Cc1ncc([N+](=O)[O-])n1CC(=O)Nc1ccccc1F	14	-4	-4	-1	3.6	6
CCC(=O)N1CCc2cc(S(=O)(=O)CCC(=O)NCc3ccco3)ccc21	-7	7	-6	1	0.4	7
CC(=O)Nc1ccc(N2C(=O)CC(N3CCSCC3)C2=O)cc1 (centres undefined)	-2	-3	-1	-2	2.9	9
COc1ccc([C@H]2CC(=O)C=C(c3ccc(Cl)cc3C)C2)cc1	8	3	-2	10	-0.1	-1
COc1ccc(-n2ncc3c2CC(C)(C)CC3NC(=O)CCc2c(C)nn(C)c2C)cc1 (centres undefined)	2	1	3	4	-1.1	2
COCCn1c(SCC(=O)Nc2cccc(S(N)(=O)=O)c2)nc2cc(Cl)ccc2c1=O	6	9	-7	2	0.1	-1
CCOc1ccccc1C(=O)NCC(=O)NCCSc1ccc(Br)cc1	17	x	-5	-4	4.6	2
O=C(CC1SC(=Nc2ccc(OC(F)F)cc2)N(CCC2=CCCCC2)C1=O)Nc1ccccc1F (centres undefined)	-2	-1	-10	2	1.1	-2
CC(=O)c1c(N2CCN(Cc3ccccc3)CC2)[nH]c(-c2ccccc2)nc1=S	-8	12	-55	-5	-0.1	-8
C=CCn1c(-c2ccc(OC)cc2)nc2ccccc21	-5	0	-21	4	-0.3	-3
Cc1cc(C)c(S(=O)(=O)Nc2ccccc2)c(C)c1	8	x	-1	26	0.5	0
Cc1ccc(Nc2ccc([N+](=O)[O-])cn2)cc1Cl	0	-8	-7	-2	0.8	-10
CC(C)N(C(=O)[C@H]1C[C@H](CC(=O)NCCCN(C)C)C(=O)N2CCc3c([nH]c4cc(CCC(=O)N(C)C)ccc34)[C@]12C)C(C)C	1	x	-3	-4	1.3	0
CN(C)c1ccc(C(=O)c2ccccc2)cc1	3	-17	-8	15	1.5	13
CN(C)S(=O)(=O)c1ccc(NC(=O)c2ccc(Br)o2)cc1	1	-18	-13	4	-0.4	-1
CCOC(=O)C[n+]1ccc2c([nH]c3ccccc32)c1C	-11	u	-11	-2	-0.4	-9
COc1cccc(-c2nnc(NC(=O)c3cccs3)s2)c1	-9	-11	-5	1	3.1	-8

5 of these compounds, reformatted.
SMILES | TRPML1 inh | TRPV1 potentiator | D2 potentiator | CtBP-E1A blk | TRPML1 agonist | Six1-Eya2 blk
CC(=O)c1c(N2CCN(Cc3ccccc3)CC2)[nH]c(-c2ccccc2)nc1=S | -8 | 12 | -55 | -5 | -0.1 | -8
C=CCn1c(-c2ccc(OC)cc2)nc2ccccc21 | -5 | 0 | -21 | 4 | -0.3 | -3
Cc1cc(C)c(S(=O)(=O)Nc2ccccc2)c(C)c1 | 8 | x | -1 | 26 | 0.5 | 0
Cc1ccc(Nc2ccc([N+](=O)[O-])cn2)cc1Cl | 0 | -8 | -7 | -2 | 0.8 | -10
CC(C)N(C(=O)[C@H]1C[C@H](CC(=O)NCCCN(C)C)C(=O)N2CCc3c([nH]c4cc(CCC(=O)N(C)C)ccc34)[C@]12C)C(C)C | 1 | x | -3 | -4 | 1.3 | 0

Continuation.
SMILES	TRPML1 inh	TRPV1 potentiator	D2 potentiator	CtBP-E1A blk	TRPML1 agonist	Six1-Eya2 blk
COc1ccc(C2Nc3ccccc3C(=O)N2c2ccc(F)cc2)cc1Cn1nnc2ccccc21 (centres undefined)	0	1	-8	-16	0.2	-20
CCOC(=O)c1sc2nc(C)nc(SCC(=O)NC3CCS(=O)(=O)C3)c2c1C (centres undefined)	8	-2	-8	x	0.2	-6
O=C(CSc1nnc(-c2ccncc2)n1-c1ccc(F)cc1)NNC(=O)c1cccc(O)c1	6	-1	-11	0	0.1	1
Cc1nn(-c2ccccn2)c2c1C(c1ccsc1)C1=C(CCCC1=O)N2 (centres undefined)	32	-7	-2	-20	3.9	0
Cc1ccc(S(=O)(=O)N(C)C)cc1NC(=O)C(C)OC(=O)C1CCCCC1 (centres undefined)	-4	x	-16	-4	-0.6	6
Cc1ccc2c(c1)-c1c(ssc1=S)C(C)(C)N2C(=O)CSC1=NCCS1	-3	0	-7	-25	-0.2	-8
CCCOc1ccc(-c2c(=O)n(O)c3ccccc3[n+]2[O-])cc1	-8	3	-3	0	0.1	0
COC(=O)c1ccc(NC(=O)c2nc(S(=O)(=O)Cc3cccc(C)c3)ncc2Cl)cc1	-2	u	-13	-7	-0.1	-10
C/C(=N\NC(=O)c1ccccc1C)c1cccc([N+](=O)[O-])c1	52	-7	-6	-4	-0.1	2
Cc1noc(C)c1COc1ccc(C(=O)OCC(=O)N2CC3(C)CC2CC(C)(C)C3)cc1 (centres undefined)	-1	0	3	-1	3.2	-1
Brc1cnc(N2CCCCC2)nc1N1CCOCC1	-16	-19	-3	4	0.2	6
COCn1c(-c2ccccc2)nc2ccccc21	1	-9	-7	9	1.1	4
O=C(c1ccc(N2CCCC2=O)cc1)N1CCN(c2ccc(Cl)cc2)CC1	-4	5	-2	4	0.1	1
Cc1ccc(/C=C2\SC(=S)N(CC3CCCO3)C2=O)o1 (centres undefined)	12	15	-2	-18	0.2	-28
COc1ccc(S(=O)(=O)N2CCCC2CNC(=O)C(=O)NC2CC2)cc1 (centres undefined)	-12	-4	1	1	0.6	3
O=C(N/N=C/c1sc(N2CCOCC2)nc1-c1ccccc1)c1ccccc1Cl	6	23	0	x	1.4	-8
Cc1ccc(NC(=O)CSc2nc(N)cc(=O)[nH]2)cc1S(=O)(=O)N1CCOCC1	-16	8	-5	-3	0.9	-1
Cc1ccc(Cn2nnc3c(=O)[nH]c(C4CCCN(S(=O)(=O)c5ccccc5)C4)nc32)cc1 (centres undefined)	22	3	-7	-5	1.5	-4
CCc1nnc(NC(=O)CSc2nc3cccnc3n2C2CCCCC2)s1	0	5	11	-1	-1.2	-3
COc1ccc(CCNC(=O)C2CC(c3cccc([N+](=O)[O-])c3)=NO2)cc1 (centres undefined)	-12	-8	1	6	0.5	-3
CCN1CCN(C(c2ccccc2)c2nnnn2Cc2ccccc2)CC1 (centres undefined)	-1	-5	-1	4	0.1	-1
CN(C)c1cc[n+](CC(=O)N2c3ccccc3Sc3ccccc32)cc1	-1	3	-9	-2	-0.8	-10
COc1ccc(-n2c(C)nc3cc(C(=O)O)ccc32)cc1	14	1	0	4	-0.3	3
CN(Cc1nc2ccccc2[nH]1)C(=O)C1CCC(=O)N(CCc2cccc(F)c2)C1 (centres undefined)	-4	13	12	1	0.9	4
COC(=O)[C@@]1(Sc2ccc(C)cc2)CC(=O)N(c2cccc(SC)c2)[C@@H]1c1ccccc1	x	x	x	0	1.7	-16
CC(=O)c1cccc(NC(=O)COC(=O)CCc2ccc(S(=O)(=O)N3CCOCC3)cc2)c1	33	-9	-7	23	1.2	-2
COc1ccc2c(c1OC)C(=O)N1C2SC[C@H]1C(=O)NC1CCCC1 (some centres undefined)	-8	6	-3	5	-0.7	6
COc1ccc(-c2cc3ccc(F)cc3cn2)cc1	-7	x	-11	12	0.6	17
CC(=O)N1CCN(C(=O)COC(=O)CNC(=O)c2ccc(C)cc2)CC1	11	5	-4	-17	0.6	6
CCS(=O)(=O)N1Cc2ccccc2CC1C(=O)Nc1nnc(SCc2c(Cl)cccc2Cl)s1 (centres undefined)	3	5	-5	-5	-0.4	-7
C[C@H](NC(=O)c1ccc2ccccc2c1)C(=O)N1CCC2(CC1)NCCc1[nH]cnc12	-7	4	-7	x	1.1	-2
COCC1CCN(Cc2cn(-c3ccccc3F)nc2-c2cc(C)sc2C)CC1	-11	-3	-10	-2	-0.2	17
COC(=O)c1c(C)[nH]c(C(=O)C(C)OC(=O)c2cnc(C)cn2)c1C (centres undefined)	-7	19	-15	-3	1.7	1
O=C(c1cccc(Cl)c1)N1CCN(Cc2ccccc2F)CC1	7	-7	-11	5	-0.5	-1
CSCCC(NC(=O)COc1ccccc1)C(=O)N(C)CC(=O)Nc1ccc(C)cc1 (centres undefined)	-3	3	-7	-2	1.0	-3
O=C(NCC1(c2ccccc2)CCCC1)c1cccc(Br)c1	-1	-19	-3	27	u	25
COc1ccc(Cc2c(-c3ccccc3)nc3c(C)cc(Br)cn23)c(C)c1	x	x	-10	-13	-0.1	-23
COc1cc(C)ccc1S(=O)(=O)NC1CC(C)(C)NC(C)(C)C1	-3	12	-2	3	0.0	-1
COc1ccccc1NC(=O)c1cccc2c(Br)cccc12	1	16	-4	x	-0.9	15
C#CCN(CC=C)C(=O)CCc1nnc(COc2ccccc2)o1	40	1	-11	x	1.2	1
CC(Sc1nc2ncc(Cl)cc2[nH]1)C(=O)Nc1ccc(C(N)=O)cc1 (centres undefined)	-11	18	-10	-6	0.3	-6
CCN1CCN(CCNC(=O)C2CCCN(Cc3nc(-c4cccc(Cl)c4)oc3C)C2)CC1 (centres undefined)	6	-3	-10	3	-0.1	0
COc1ccc2c(c1)nc(SCC(C)O)n2C (centres undefined)	-14	21	-11	-4	1.9	-6
CCOc1ccc(S(=O)(=O)NC2CCCCC2C)cc1 (centres undefined)	8	x	-7	5	0.8	4
COc1ccc(N2C(=O)CC(NNC(=O)c3ccc(Br)s3)C2=O)cc1 (centres undefined)	-1	15	-10	4	1.2	-1
CSCC[C@H](NC(=O)OC(C)(C)C)c1nnc(SCc2ccccc2)o1	-3	-18	-18	-11	1.6	0
CCOC(=O)c1c(S(=O)(=O)NCCc2cccs2)c(C)n(C)c1C	27	-3	-7	-7	-0.9	0
Oc1ccc2c(c1)c1c3n2CCNC3CCC1 (centres undefined)	1	8	-11	-1	-0.6	-9
Cc1ccc([C@H]2C[C@H](n3cc(COC(=O)c4ccccc4)nn3)[C@@H](O)CN2C(=O)C2CCCCC2)cc1	19	x	1	-1	1.5	-9
COc1ccc(C(=O)NC(C)c2nnc(SCC(=O)Nc3nc(C)cs3)n2C)cc1 (centres undefined)	-14	3	0	1	0.3	0
O=C(COc1ccc(Cl)cc1)NCCN1CCCCC1	-1	17	-18	6	0.4	2
CC1CCCCC1NC(=O)Cn1cnc2c1c(=O)n(C)c(=O)n2C (centres undefined)	1	x	-1	10	0.6	1
O=c1[nH][nH]c2c1[C@H](CCc1cccc(Cl)c1)O[C@H](C1CC1)C2	x	x	x	1	-0.8	0

Screening results deposited in PubChem by National Center for Advancing Translational Sciences (NCATS).
